# D2 agonist: Beta-Arrestin HTS for Positive Allosteric Modulators of the Human D2 Dopamine Receptor: Agonists; 360,000 compounds, 0.084% hits; D(2) dopamine receptor (Homo sapiens), P14416; DiscoveRx PathHunter D2 beta-arrestin, luminescence, 90 min; 100% = 57 uM dopamine signal; activation, % (test concentration not listed); in the data active = activation above about 40%; inconclusive = about 15% to 40%; inactive = below about 15%; note: compound concentration not given in the record; the text of the record calls up to 30% inactive
# Target sequence (P14416 whole entry, looked up): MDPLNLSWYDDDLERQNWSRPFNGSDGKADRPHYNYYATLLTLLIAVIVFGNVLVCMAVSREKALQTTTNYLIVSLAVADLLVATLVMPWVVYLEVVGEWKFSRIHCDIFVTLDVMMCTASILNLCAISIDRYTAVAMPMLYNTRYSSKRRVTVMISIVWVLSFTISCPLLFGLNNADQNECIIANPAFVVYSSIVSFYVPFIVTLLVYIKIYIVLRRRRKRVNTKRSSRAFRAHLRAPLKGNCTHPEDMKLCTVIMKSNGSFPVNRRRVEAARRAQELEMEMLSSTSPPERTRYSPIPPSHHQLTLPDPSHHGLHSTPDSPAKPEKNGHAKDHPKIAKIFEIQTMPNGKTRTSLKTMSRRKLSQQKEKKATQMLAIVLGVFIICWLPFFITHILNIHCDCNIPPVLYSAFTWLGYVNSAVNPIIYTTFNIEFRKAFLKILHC
#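 DiscoveRx PathHunter D2 beta-arrestin cells (2,100/well) attached overnight, then compound-stimulated 90 min at 37 C in HBSS/10 mM HEPES/0.1% Tween-20 buffer; beta-galactosidase complementation read by luminescence after 1 h at ambient temperature. Dopamine 57 uM final (EC100) as control.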
# D2 PAM: Beta-Arrestin HTS for Positive Allosteric Modulators of the Human D2 Dopamine Receptor: Potentiators. D(2) dopamine receptor (Homo sapiens), P14416. DiscoveRx D2 beta-arrestin cells, luminescence, 90 min; 100% = 57 uM dopamine signal. potentiation, % (concentration not given with the values). 360,000 compounds, 0.23% hits; active = potentiation of 50% or more; inconclusive = 30% to 50%; inactive = 30% or less;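 note: tested on top of an EC20 dose of dopamine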
#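 PathHunter D2 cells, attached overnight at 37 deg C, received compound in DMSO plus dopamine at EC20 (50 nM final) for 90 min at 37 deg C. Beta-arrestin recruitment was read as luminescence after 1 h with detection reagent at ambient temperature.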
# TRPML1 agonist: qHTS for Agonists of the Human Mucolipin Transient Receptor Potential 1 (TRPML1); TRPML1-expressing cells, Ca2+ dye fluorescence, FDSS; host cell line not named in the record; reference of the full effect not given here; 410,000 compounds, 0.12% hits; activation, % (test concentration not listed); Mucolipin-1 (Homo sapiens), Q9GZU1; in the data active = activation above about 50%; inconclusive = about 30% to 50%; inactive = below about 30%; note: 0% is about no effect; the text of the record puts the active cut at 80%
# Target sequence (Q9GZU1 whole entry, looked up): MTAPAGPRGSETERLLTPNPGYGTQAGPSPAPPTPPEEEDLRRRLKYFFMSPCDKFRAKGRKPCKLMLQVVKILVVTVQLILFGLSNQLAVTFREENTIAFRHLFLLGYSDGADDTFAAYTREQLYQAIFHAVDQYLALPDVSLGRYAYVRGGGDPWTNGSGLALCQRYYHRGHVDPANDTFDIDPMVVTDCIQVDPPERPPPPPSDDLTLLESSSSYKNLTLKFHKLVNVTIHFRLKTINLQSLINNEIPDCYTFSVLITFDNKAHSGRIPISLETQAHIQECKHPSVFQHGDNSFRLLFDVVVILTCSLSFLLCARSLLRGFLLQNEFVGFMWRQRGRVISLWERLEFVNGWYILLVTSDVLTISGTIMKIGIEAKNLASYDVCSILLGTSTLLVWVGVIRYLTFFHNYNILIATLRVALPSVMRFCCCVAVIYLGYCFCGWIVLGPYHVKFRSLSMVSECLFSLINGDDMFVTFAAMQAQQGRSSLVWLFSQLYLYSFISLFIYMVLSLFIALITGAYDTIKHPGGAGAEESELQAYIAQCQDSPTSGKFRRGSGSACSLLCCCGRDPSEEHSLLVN
#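 Calcium fluorescence on an FDSS kinetic reader gave the read-out. Tet-induced TRPML1-DL cells were plated overnight, dye-loaded (Ca8 with quencher, 45-90 min, room temperature, dark), then read 110 s after compound addition, and again 110 s after 4uM final 54-4 (EC80).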
# Six1-Eya2 inh: qHTS Assay for Inhibitors of the Six1/Eya2 Interaction | AID 651725, 2012 | activity change, % (test concentration not listed) | AlphaScreen GST-Six1/His-Eya2 binding, biochemical; stronger effect = lower value; control for the full effect not named in the record | 360,000 compounds, 0.56% hits; in the data active = activity change below about -65%; inconclusive = about -30% to -65%; inactive = above about -30%; note: % is set by controls: 0 for no effect and ±100 for the full control effect
#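 Homogeneous AlphaScreen proximity assay pairing GST-Six1 with His-tagged Eya2 (added as 5X mix: 250 nM and 500 nM) in 50 mM Tris pH 8.0, 300 mM NaCl, 1 mM TCEP. Glutathione donor and nickel acceptor beads; 1 h, 37 °C, dark.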
# PINK1 modulator: A Quantitative High throughput Screen to Identify Chemical Modulators of PINK1 Expression | 410,000 compounds, 0.2% hits | Potency, µM (titrated, usually from 76.6 µM), without a hit: at the top dose activation (PINK1 increase), actives largely listed as activators | AID 624263, 2012 | PINK1 immunofluorescence, high-content cytometry, 24 h; active = well fitted activation curve with a large enough effect; inconclusive = small, poorly fitted or top-dose-only effect; inactive = flat fitted curve, though single readings scatter; cell line not stated here;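 note: potency is the fitted concentration of half-maximal effect; % of control where 0% means no effect; nearly all actives have a fitted effect of over 65% in size; a mitochondrial uncoupler was the plate control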
#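 Readout is PINK1 immunofluorescence, quantified alongside mitochondrial, cell and nuclear markers by laser-scanning microplate cytometry. Cells from a stable line were exposed to compound titrations (5 concentrations) for 24 hours, with CCCP controls.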
# CtBP-E1A inh: qHTS Assay for Inhibitors of the CtBP/E1A Interaction; activity change, % (concentration not given with the values); 340,000 compounds, 0.49% hits; AlphaScreen GST-E1A/His-CtBP binding, 1536-well; stronger effect = lower value; control for the full effect not named in the record; in the data active means activity change below about -65%; inconclusive means about -30% to -65%; inactive means above about -30%; note: % is set by controls: 0 for no effect and ±100 for the full control effect
#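 Homogeneous bead-based format: GST-tagged E1A captured on glutathione donor beads, His-tagged CtBP on nickel acceptor beads; compounds precede bead addition by 2 h at 37 °C.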
# The depositor's hits bear a star; ? = inconclusive; . = no result given; & = joins results of further samples; [ ] = dose if it differs, or a comment. No enrichment for hits; overall some 1.3% were active at least once.
# Results follow in this order: D2 agonist	D2 PAM	TRPML1 agonist	Six1-Eya2 inh	PINK1 modulator	CtBP-E1A inh
Cc1ccc(C)c(NC(=S)N2CCCC2)c1
  -0.9	6.2	-0.7	5.5	-0.6%	4.7
CN(C)Cc1ccccc1Sc1ccc(Br)cc1
  0.2	-23.2	1.8	-0.1	?	-23.7
CCCN1C(=S)SC(C)(C)C1/[N+]([O-])=C/c1ccc(S(=O)(=O)NC)cc1 (configuration not stated)
  -1.1	0.1	1.7	-16.5	-0.8%	-0.2
O=C(O)c1ccc(NC(=O)c2cn(-c3ccccc3)nc2-c2ccc(Br)cc2)cc1
  7.4	12.8	-1.0&0.2	-15.7	1.3%&0.8%	-1.3
CN(C)N1C(N)=C(C#N)C(c2cccnc2)C2=C1CC(C)(C)CC2=O (configuration not stated)
  -2.0	-0.7	-0.5	-1.1	8.1%	23.0
c1ccc(Cn2nnc3c(N4CCC5(CC4)OCCO5)ncnc32)cc1
  -1.5	-4.1	0.7	0.9	-0.9%	1.5
CC(Sc1nnc(-c2ccccc2)c(-c2ccccc2)n1)C(=O)NCC1CCCO1 (configuration not stated)
  -2.6	-8.3	-0.1	-26.4	-1.9%	-11.7
COc1ccccc1NS(=O)(=O)c1ccc(C(=O)N2CCCC(C)C2)cc1 (configuration not stated)
  8.6	-3.5	1.5	11.5	-0.9%	3.5
Cc1cc(NC(=O)CSc2nc3ccccc3c(=O)n2CCCC(=O)NCc2ccccc2)n[nH]1
  -0.4	-1.2	-0.3	-3.3	-0.1%[38.3 µM]	-7.6
CCc1nnc(NC(=O)CCC(=O)Nc2ccc(C)cc2)s1
  -8.9	-10.9	-1.2	-15.0	5.8%	.
O=C(NCc1ccncc1)c1nc(-c2ccc(C(F)(F)F)cc2)no1
  -3.1	-17.7	0.4	-0.8	2.0%	7.4
COc1ccc(-c2cc(OC)c3ccccc3n2)cc1
  -6.9	-4.2	2.9	5.8	11.1%	2.7
COc1cccc(OC)c1C(=O)Oc1ccc2c(c1)O/C(=C\c1ccncc1)C2=O
  -1.1	-4.0	1.3	9.1	6.7%	10.9
Cc1ccc(/C=N/Nc2nncc(-c3ccccc3)n2)o1
  -4.4	-2.7	0.5	-14.7	5.8%	-2.9
CC(NC(=O)C1(c2cccs2)CCOCC1)c1ccccc1 (configuration not stated)
  -10.3	-7.7	-0.3&-0.4	-1.0	0.2%&-2.7%	5.1
CCN(CC)c1ccc(/C=N/NC(=S)NC)c(O)c1
  10.7	-6.7	2.8	-89.6*	-0.9%	?
C=CCN1C(=O)/C(=C/c2ccccc2)S/C1=N/c1nccs1
  -1.1	5.3	-0.3	10.0	10.5%	26.1
COc1ccc(Cl)cc1NC(=O)C(OC)c1ccccc1 (configuration not stated)
  -2.6	-22.9	1.1	11.0	1.9%	12.9
CCOc1ccc(NC(=O)CCNS(=O)(=O)c2cccc3nonc23)cc1
  4.0	-3.9	-0.2&1.7	-0.8	1.7%&1.5%	4.3
COc1ccccc1-c1csc(C(NC(C)=O)c2ccc(F)c(F)c2)n1 (configuration not stated)
  -6.9	-2.5	0.1	3.1	2.1%	3.4
CCOC(=O)c1cnc2ccccc2c1Nc1ccc2c(c1)OCCO2
  -3.6	-8.9	-0.1	-17.0	-0.5%	-14.4
CSCCC(NC(=O)/C(=C\c1ccc(Cl)cc1)NC(=O)c1ccccc1)C(=O)O (configuration not stated)
  4.4	-2.4	-0.4	1.1	3.5%	4.4
COc1cccc(Oc2c(C)oc3c(CN4CCCC4)c(O)ccc3c2=O)c1
  -0.5	-14.9	-0.3	-1.1	0.8%	-12.4
C=CCN(c1ccccc1C(=O)O)S(=O)(=O)/C=C/c1ccccc1
  2.7	-0.5	-1.0	8.5	1.7%	1.4
Cc1ccc2nc(SCC(=O)N(C)C3CCS(=O)(=O)C3)[nH]c2c1 (configuration not stated)
  -9.2	-7.8	-0.3	-10.9	0.1%	-7.9
NC(=O)C(c1ncc(C(F)(F)F)cc1Cl)c1c(Cl)cccc1Cl (configuration not stated)
  0.1	-4.9	0.3	4.5	0.0%	-0.8
O=C(c1ccc(Cl)c(S(=O)(=O)N2CCCC2)c1)N1CCN(c2ccccn2)CC1
  1.0	-2.1	3.9	-1.7	4.8%[38.3 µM]	1.9
Cc1cccc(C)c1NC1=NC(=S)N(c2ccc(C(=O)O)cc2)C12CCCCC2
  -2.8	-1.6	0.1	5.2	-0.1%	-0.6
COc1cccc(/C=N/NC(=O)c2nnn(-c3nonc3N)c2CN(C)c2ccccc2)c1
  0.0	-5.2	1.6	-1.9	5.6%	.
CC1=C(C)CC(C(=O)c2ccc(C)cc2)C(C(=O)O)C1 (configuration not stated)
  -1.6	-8.6	0.2	1.9	1.6%	-1.6

# Results follow in this order: D2 agonist	D2 PAM	TRPML1 agonist	Six1-Eya2 inh	PINK1 modulator	CtBP-E1A inh
CCC(=O)Nc1ccc2c(c1)nc(CCN1CCC(C)CC1)n2C
  -3.5	-13.0	1.0	25.7	-3.4%	5.4
CC(Cc1ccco1)NC(=O)c1ccc(C(F)(F)F)cc1 (configuration not stated)
  -2.5	-13.7	-0.4	-1.8	0.5%	1.7
Cc1ccc(S(=O)(=O)N2[C@@H](c3ccccc3F)C(C(=O)O)=CC[C@H]2c2ccc(Cl)cc2)cc1
  -0.9	-8.7	-0.4	0.2	0.6%	.
CCOC(=O)c1cc(C(=O)OCC)c2ccccn2c1=O
  1.2	0.6	-0.1	0.1	-1.4%	-2.1
COc1ccc(NC(=O)COC(=O)c2ccc3c(c2)OCCO3)cc1
  -0.4	-5.9	-0.8	4.0	4.0%	2.3
Cc1ccc(C)c(C(=O)NC2CC(C)(C)NC(C)(C)C2)c1
  -2.5	-8.5	0.1	1.1	1.1%	17.6
CCOc1ccccc1NC(=O)COC(=O)CSc1ccc(Cl)cc1
  -3.9	-6.0	0.2	25.8	-0.2%	9.5
COc1ccc(/C=N/NC(=O)Cn2cnc3c2c(=O)n(C)c(=O)n3C)c(OC)c1OC
  1.2	-5.3	0.3	-0.5	-0.9%	8.5
N#Cc1ccc(NC(=O)COc2ccc(-n3cnnn3)cc2)cc1
  -2.6	-2.4	-0.6	-11.2	2.2%	5.5
Cn1cc(Br)c(C(=O)N/N=C/c2cc3ccccc3nc2Cl)n1
  3.4	-11.4	0.0	-3.5	4.3%	?
COc1ccccc1N(CC(=O)NCCC1=CCCCC1)S(=O)(=O)c1ccccc1
  3.3	-5.4	2.4	-1.3	4.7%	1.8
Cc1cc(C)cc(NC(=S)N(Cc2cccc(Br)c2)CC2CCC(C(=O)O)CC2)c1 (configuration not stated)
  -3.1	-7.4	0.0	-0.3	-0.7%	.
CCCCn1cnc2c1c(=O)n(C)c(=O)n2C
  -2.1	1.8	-0.5	-0.4	1.6%	1.2
CS(=O)(=O)c1ccc2nc(NC(=O)c3cc(-c4ccccc4)nn3-c3ccccc3)sc2c1
  -1.1	-0.8	-0.7	-4.8	-1.2%	.
CC(C)Oc1ccc(S(=O)(=O)N2CCCCC2)cc1NC(=O)CN1C(=O)NC(C)(C2CC2)C1=O (configuration not stated)
  -4.5	1.5	1.5	2.9	3.0%	-1.4
COc1ccc(-c2nc3cc(NC(=S)NC(=O)Cc4ccccc4)ccc3o2)cc1
  -0.7	-15.5	-0.2	-1.2	2.5%	-8.4
COc1ccc([N+](=O)[O-])cc1NC(=O)C(C)N(C)Cc1cccc(OC)c1OC (configuration not stated)
  -5.3	-22.9	0.9	-5.5	2.2%	-7.8
COc1ccc(NC(=O)c2nc(S(=O)(=O)Cc3cccc(C)c3)ncc2Cl)c(OC)c1
  -3.1	2.0	-0.6	2.4	0.2%	.
O=C(O)C[C@H]1c2cc(C(F)(F)F)ccc2S(=O)(=O)N1C1CCCCC1
  -2.6	-9.2	0.0&-0.2	15.0	1.2%	.
Cc1ccc(C(=O)N[C@@H](C)CN2C3=NC[C@H](C(C)C)N3C[C@H]2Cc2ccc(O)cc2)cc1Br
  -0.2	-26.9	-1.1	-1.7	-0.4%	-2.8
O=C(CCCN1C(=O)c2ccccc2C1=O)Nc1ccccc1C(=O)N1CCOCC1
  -3.9	6.4	-0.8	0.9	2.3%	-2.1
O=C1c2ccccc2C(=O)C12Cc1ccccc1N1CCN(c3ccccc3)CC12 (configuration not stated)
  1.5	-12.8	0.5	-1.8	-1.2%	-8.2
O=C(CC1C(=O)NCCN1Cc1ccccc1C(F)(F)F)NCCN1CCCCC1=O (configuration not stated)
  -4.9	-8.2	2.9	4.8	-0.6%	.
Cc1noc(C)c1COc1cccc(C(=O)Nc2ccc3c(c2)OCO3)c1
  3.7	-5.0	1.7	-22.0	9.8%	-0.3
CC(=O)Nc1c(Cl)cc([N+](=O)[O-])c2ccccc12
  7.1	20.9	0.4	0.5	-0.2%	-2.0
CCOc1ccc(NC(=O)Cc2ccccc2)cc1
  -0.9	-4.1	0.3	13.2	0.6%	16.5
COC(=O)c1sccc1NC(=O)Cn1nnc(-c2ccccc2C)n1
  -1.4	-3.9	2.2	5.2	2.0%	11.7
N#C/C=C(/c1ccc(F)cc1)N1CCOCC1
  -3.6	-8.1	1.3	-0.5	-0.4%	2.8
Cc1ccc(NC(=O)C(=O)NCCCN2CCCC2=O)c(C)c1
  -1.4	-17.7	0.2	2.8	-0.9%	-17.3
COc1ccccc1/C=C/CN1CCC(n2nccc2NC(=O)C2CC2)CC1
  -1.9	-22.5	0.1	-0.6	-0.3%	-0.6

# 3 entries out of the list, ordered by molar mass, ascending.
# Results follow in this order: D2 agonist	D2 PAM	TRPML1 agonist	Six1-Eya2 inh	PINK1 modulator	CtBP-E1A inh
CC(=O)Nc1c(Cl)cc([N+](=O)[O-])c2ccccc12
  7.1	20.9	0.4	0.5	-0.2%	-2.0
O=C(CC1C(=O)NCCN1Cc1ccccc1C(F)(F)F)NCCN1CCCCC1=O (configuration not stated)
  -4.9	-8.2	2.9	4.8	-0.6%	.
Cc1ccc(C(=O)N[C@@H](C)CN2C3=NC[C@H](C(C)C)N3C[C@H]2Cc2ccc(O)cc2)cc1Br
  -0.2	-26.9	-1.1	-1.7	-0.4%	-2.8

# Following part
# Results follow in this order: D2 agonist	D2 PAM	TRPML1 agonist	Six1-Eya2 inh	PINK1 modulator	CtBP-E1A inh
CC(=O)Nc1nn(C)c2nc3cc(C)ccc3cc12
  -3.1	-2.6	1.5	-20.5	-0.2%	-19.9
S=C(Nc1ccc(Cl)c(Cl)c1)NC1CCN(Cc2ccccc2)CC1
  -1.1	-17.6	3.9	-7.9	27.3%	-11.6
CNC(=S)N1N=C(c2ccc(OC)cc2)CC1c1ccc(N(C)C)cc1 (configuration not stated)
  -5.2	6.9	-0.9	?	-1.6%	?
Cc1cnc(NC(=O)CSCc2c(C)noc2C)s1
  -0.2	-1.9	-0.2	2.9	0.6%	5.4
CCOc1ccc(NC(=O)CCc2ccc(C)o2)cc1
  -1.7	-12.5	0.6	3.0	3.7%	-0.9
